Source: PubChem BioAssay (National Center for Advancing Translational Sciences (NCATS))
Prx2 Sm inh = Schistosoma mansoni Prx2 inhibition; S. mansoni Prx2 activity coupled to TGR/GSH (TGR is thioredoxin glutathione reductase), NADPH fluorescence loss, qHTS; some inactives read as strong as hits; Potency, µM; 0.07% of 65,000 active; active means full or partial inhibition curve with a strong effect at the top dose; inconclusive means weaker partial or single-point curve; inactive means no accepted curve; further: series up to 57 µM; many of its hits are not listed in these tables
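qHTS, coupled TGR/Prx2 format; 15 min compound preincubation at RT; reaction started with H2O2 (2.5 mM aliquot); kinetic NADPH fluorescence decrease, ex 365/em 450 nm.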
LT uptake inh = blocks cellular internalization of anthrax lethal toxin. Cells, anthrax lethal toxin internalization, FRET ratio (460/530). Potency, µM (titrated, usually from 40 µM), inactives show top-dose activity change, negative = inhibition, hits mostly inhibitors. 0.67% of 70,000 active. AID 912; active = well fitted falling ratio curve with the 530 nm signal flat; inconclusive = other ratio curves, or a change in one channel alone; inactive = flat curves in the ratio and both channels; the % refers to the ratio; further: on the % scale 0 is the no-effect control and ±100 the full control effect; nearly all actives have a fitted effect of over 50% in size; tested in ME-180 cells; beta-lactamase reporter
Numbers without * were called inactive. Potency means the concentration at half of the fitted maximal effect.

Sample of the layout:
For N#Cc1c(N2CCN(C(=O)c3ccco3)CC2)nc(-c2ccccc2)c2c1CCCC2 the results were LT uptake inh inconclusive.
`C/C=C/Cn1c(SCc2ccccc2)nc2c1c(=O)[nH]c(=O)n2C` gave Prx2 Sm inh >57 and LT uptake inh inconclusive.

This part in full, repeating the preview:
For N#Cc1c(N2CCN(C(=O)c3ccco3)CC2)nc(-c2ccccc2)c2c1CCCC2 the results were LT uptake inh inconclusive.
`C/C=C/Cn1c(SCc2ccccc2)nc2c1c(=O)[nH]c(=O)n2C` gave Prx2 Sm inh >57 and LT uptake inh inconclusive.
COCCn1c(SCC#N)nnc1-c1ccccc1O was read as Prx2 Sm inh >57 and LT uptake inh -3%.
COc1ccc(C)cc1NC(=O)C1CCN(S(=O)(=O)c2cccc3cccnc23)CC1 was read as Prx2 Sm inh >57 and LT uptake inh -4%.
For COc1ccc(NC(=O)Nc2cccs2)cc1OC the results were Prx2 Sm inh >57 and LT uptake inh inconclusive.
For Cc1cccn2cc(CNC(=O)CC3CCCC3)nc12 the results were Prx2 Sm inh >57 and LT uptake inh 3%.
`COc1ccc(S(=O)(=O)NC(CC(=O)N2CCc3ccccc32)c2ccco2)cc1` (stereo not given) gave Prx2 Sm inh >57 and LT uptake inh -1%.
Screening Cc1cc(N2CCN(c3ccccc3)CC2)nc(-n2nc(C)cc2C)n1 returned Prx2 Sm inh >57 and LT uptake inh -7%.
`C=CCn1c(=O)/c(=C/c2ccc(Cl)cc2)s/c1=C(/C#N)c1nnc2n1CCCCC2` gave Prx2 Sm inh >57 and LT uptake inh 7%.
`O=C(CSCc1cnn(-c2ccccc2)c1-n1cccc1)NCc1cccs1` gave Prx2 Sm inh >57 and LT uptake inh -5%.
COCCCNC(=O)CCn1c(=O)c2ccccc2n(CC(=O)Nc2ccc(C)cc2C)c1=O was read as Prx2 Sm inh >57 and LT uptake inh -1%.
Screening CCCC1=C(C(=O)OCC)C(c2ccc(O)cc2)n2ncnc2N1 (stereo not given) returned Prx2 Sm inh >57 and LT uptake inh 5%.
`CC1(Cc2cn(CCC#N)c3ccccc23)OCCO1` gave Prx2 Sm inh >57.
`O=C(O)CCC(=O)Nc1ccc2c(c1)oc1ccccc12` gave Prx2 Sm inh >57 and LT uptake inh 6%.
Screening COc1ccc(-c2nc(-c3ccc(NC(=O)c4ccc(Br)o4)cc3)no2)cc1OC returned Prx2 Sm inh >57 and LT uptake inh -17%.
Screening CC1CC(C)CN(CC(=O)Nc2ccc(S(N)(=O)=O)cc2)C1 (stereo not given) returned Prx2 Sm inh >57 and LT uptake inh -3%.
Screening Cc1cc(NS(=O)(=O)c2ccc(NC(=O)C(C)N3C(=O)c4ccccc4C3=O)cc2)nc(C)n1 (stereo not given) returned Prx2 Sm inh >57 and LT uptake inh 7%.
For c1ccc(-n2nnnc2SCc2cn3ccccc3n2)cc1 the results were Prx2 Sm inh >57 and LT uptake inh inconclusive.
`COc1ccc(N=c2oc3c(OC)cccc3cc2C(=O)NCc2ccco2)cc1OC` gave Prx2 Sm inh >57 and LT uptake inh -10%.
`O=C(O)CCC(=O)NC1CCCCCCC1` gave Prx2 Sm inh >57 and LT uptake inh 8%.

Ordered by SMILES length (ascending): part of the list above.
For c1ccc(-n2nnnc2SCc2cn3ccccc3n2)cc1 the results were Prx2 Sm inh >57 and LT uptake inh inconclusive.
Screening CC1CC(C)CN(CC(=O)Nc2ccc(S(N)(=O)=O)cc2)C1 (stereo not given) returned Prx2 Sm inh >57 and LT uptake inh -3%.
Screening COc1ccc(-c2nc(-c3ccc(NC(=O)c4ccc(Br)o4)cc3)no2)cc1OC returned Prx2 Sm inh >57 and LT uptake inh -17%.

Following part.
O=c1ccc2cc(O[C@H]3O[C@@H](CO)[C@@H](O)[C@@H](O)[C@@H]3O)c(O)cc2o1 was read as Prx2 Sm inh >57 and LT uptake inh inconclusive.
COc1ccc(C(=O)NCC2OCCc3ccccc32)c(O)c1 (stereo not given) was read as LT uptake inh -6%.
O=C(Nc1ccc(Cc2ccncc2)cc1)c1ccco1 was read as LT uptake inh 10%.
Screening CCOC(=O)c1cnc(-n2cc(C)cn2)nc1NCc1ccc2c(c1)OCO2 returned Prx2 Sm inh >57 and LT uptake inh -9%.
For CCOC(=O)c1cnn(-c2ncnc3sc(C)c(C)c23)c1N the results were LT uptake inh 14%.
O=C(CN1C(=O)CSC1=O)NCc1ccccc1 was read as Prx2 Sm inh >57 and LT uptake inh 12%.
`CC1=CCC(C(=O)O)C(C(=O)O)C1` (stereo not given) gave LT uptake inh -17%.
`O=C(CSc1nnc(-c2cccs2)o1)OC1CCCCC1` gave Prx2 Sm inh >57 and LT uptake inh 17%.
Screening N[C@H]1CCN(O)C1=O returned Prx2 Sm inh >26 and LT uptake inh -2%.
`CCn1c(SCC(=O)N2CCN(c3ccccc3)CC2)nnc1-c1ccoc1C` gave Prx2 Sm inh >57 and LT uptake inh -5%.

Random excerpt: five records from the list.
`CCn1c(SCC(=O)N2CCN(c3ccccc3)CC2)nnc1-c1ccoc1C` gave Prx2 Sm inh >57 and LT uptake inh -5%.
`O=C(O)CCC(=O)Nc1ccc2c(c1)oc1ccccc12` gave Prx2 Sm inh >57 and LT uptake inh 6%.
Screening Cc1cc(NS(=O)(=O)c2ccc(NC(=O)C(C)N3C(=O)c4ccccc4C3=O)cc2)nc(C)n1 (stereo not given) returned Prx2 Sm inh >57 and LT uptake inh 7%.
`COc1ccc(N=c2oc3c(OC)cccc3cc2C(=O)NCc2ccco2)cc1OC` gave Prx2 Sm inh >57 and LT uptake inh -10%.
`O=C(CSc1nnc(-c2cccs2)o1)OC1CCCCC1` gave Prx2 Sm inh >57 and LT uptake inh 17%.

More results:
For CCOC(=O)C1CCCN(CC(=O)NC2=Nc3ccccc3N=C(C)C2c2ccccc2)C1 (stereo not given) the results were Prx2 Sm inh >57 and LT uptake inh -12%.
Screening C=C(C)Cn1c(=O)c(NC(=O)c2ccccc2)c2n(c1=S)CCC2 returned Prx2 Sm inh >57 and LT uptake inh 17%.
For COc1ccc(-c2nnc(SCc3cc(C)cc(C)c3)o2)cc1 the results were Prx2 Sm inh >57 and LT uptake inh -21%.
O=C(CN1CCN(c2ccc(Cl)cc2)CC1)Nc1cccc(F)c1 was read as Prx2 Sm inh >57 and LT uptake inh 15%.
O=C(COC(=O)c1ccc2c(c1)OCCO2)NCCC1=CCCCC1 was read as Prx2 Sm inh >57 and LT uptake inh 8%.
CCOC(=O)Cc1csc(NC(=O)CSc2nnc(Cc3csc(N)n3)n2C)n1 was read as Prx2 Sm inh >57 and LT uptake inh -1%.
For O=C(CCn1[nH]c(=O)c2ccccc2c1=O)NCCO the results were Prx2 Sm inh >57 and LT uptake inh 1%.
For C=CCn1c(=O)c2c(nc(-c3ccc(S(=O)(=O)O)cc3)n2C)n(C)c1=O the results were Prx2 Sm inh >57 and LT uptake inh 10%.
Screening Cc1cccn2c(=O)c3cc(C(=O)N4CCc5ccccc5C4)n(C)c3nc12 returned Prx2 Sm inh >57 and LT uptake inh 4%.
For COc1ccccc1C1CC(=O)NC(C)=C1C(=O)OCC(C)C (stereo not given) the results were Prx2 Sm inh >57 and LT uptake inh 1%.
Screening Cc1c(CN(C)C)c2c(n1C)C(=O)c1ccc(Br)cc1-2 returned LT uptake inh -7%.
For CCc1c(C)c2nncn2[nH]c1=O the results were Prx2 Sm inh >57 and LT uptake inh inconclusive.
Clc1ccccc1-c1nc(NCc2cccs2)c2ccccc2n1 was read as Prx2 Sm inh >57 and LT uptake inh inconclusive.
Cc1nnc2sc(-c3cc4ccccc4o3)nn12 was read as Prx2 Sm inh >57.
CC(C)Sc1nnc(NC(=O)C2CC2)s1 was read as Prx2 Sm inh >57 and LT uptake inh -1%.
`N#Cc1cc2ccc(N3CCOCC3)cc2cc1C#N` gave Prx2 Sm inh >57 and LT uptake inh inconclusive.
Screening CCOc1cc(C2NC(=O)NC(C)=C2C(=O)OCc2ccccc2)ccc1O (stereo not given) returned Prx2 Sm inh >57 and LT uptake inh -3%.
CCCC(=O)NCCCc1nc2ccccc2[nH]1 was read as Prx2 Sm inh >57 and LT uptake inh 12%.
CCn1c2ccccc2c2cc(/C=N/n3cnnc3)ccc21 was read as Prx2 Sm inh >57 and LT uptake inh -12%.
`CCOC(=O)CSc1nnc(CNC(=O)c2ccc(OC)cc2)n1Cc1ccccc1` gave Prx2 Sm inh >57 and LT uptake inh 8%.
`CCN(C(=O)COC(=O)c1cccnc1SC)C1CCS(=O)(=O)C1` (stereo not given) gave Prx2 Sm inh >57 and LT uptake inh 0%.
COC(=O)[C@@H](NC(=O)N1CCN(c2cccc(C(F)(F)F)c2)CC1)C(C)C was read as Prx2 Sm inh >57 and LT uptake inh 14%.
Screening O=C1NCCCN1Cc1ccc(F)cc1Cl returned Prx2 Sm inh >57 and LT uptake inh -12%.
`CC1(C)CC(=O)C(Sc2nnc(-c3ccc(O)cc3)n2CC2CCCO2)C(=O)C1` (stereo not given) gave Prx2 Sm inh >57 and LT uptake inh -3%.
Cc1cc(C)n(-c2cc(N3CCOCC3)ncn2)n1 was read as Prx2 Sm inh >57 and LT uptake inh -4%.
For O=C(NCc1ccccc1)C1CCN(S(=O)(=O)N2CCOCC2)CC1 the results were Prx2 Sm inh >57 and LT uptake inh 4%.
Screening COc1ccc(C2C3=C(CC(C)(C)CC3=O)Nc3c2c(=O)[nH]c(=O)n3Cc2ccccc2)cc1 (stereo not given) returned LT uptake inh inconclusive.
Cc1noc(C)c1C(=O)N1CCC2(CC1)CN(c1ccccn1)C2 was read as Prx2 Sm inh >57 and LT uptake inh inconclusive.
`CNS(=O)(=O)c1cc(OC)ccc1OC` gave Prx2 Sm inh >57 and LT uptake inh -7%.
`CCN(CC)CCCOc1nc(C)nc2c1oc1ccccc12` gave Prx2 Sm inh >57 and LT uptake inh 4%.
Screening CCCCN1C(=O)NC(NC(C)=O)(C(F)(F)F)C1=O (stereo not given) returned Prx2 Sm inh >57 and LT uptake inh -2%.
`O=C(c1cc(-c2ccncc2)nc2ccccc12)N1CCN(c2ccccn2)CC1` gave Prx2 Sm inh >57 and LT uptake inh -29%.
`COCCNC(=O)COC(=O)CSCc1nc2ccccc2s1` gave Prx2 Sm inh >57.
CCOC(=O)N1CCC(n2c(SCC(=O)NCc3ccco3)nc3ccsc3c2=O)CC1 was read as Prx2 Sm inh >57 and LT uptake inh 7%.
`O=C(c1ccc(C(F)(F)F)cc1)N1CCCCC1` gave Prx2 Sm inh >57 and LT uptake inh 3%.
Screening C[C@]12C/C(=C/O)C(=O)C[C@@H]1CC[C@@H]1[C@@H]2CC[C@@]2(C)[C@H]1CC[C@]2(C)O returned LT uptake inh inconclusive.
`Cc1nc2ccc(Cl)cc2nc(C)/c1=N\O` gave Prx2 Sm inh >57 and LT uptake inh inconclusive.
`Cc1ccc2c(c1)nnn2C1CCN(S(=O)(=O)c2ccc(C(=O)N(C)C)cc2)CC1` gave Prx2 Sm inh >57 and LT uptake inh 13%.
`CCn1c(N2CCC(Cc3ccccc3)CC2)nc2c1c(=O)[nH]c(=O)n2C` gave Prx2 Sm inh >57 and LT uptake inh inconclusive.
COCc1cc(=O)n2c(-c3ccc(C)cc3)n[nH]c2n1 was read as Prx2 Sm inh >57 and LT uptake inh -5%.
`Cc1ccc(OC(=O)C(F)(F)F)c2c1NCCC2` gave Prx2 Sm inh >57 and LT uptake inh -12%.
For CCOc1ccccc1NC(=O)c1ccccc1NS(C)(=O)=O the results were Prx2 Sm inh >57 and LT uptake inh 19%.
Screening c1ccc(CN2CCC3(CCNCC3)CC2)cc1 returned Prx2 Sm inh >57 and LT uptake inh inconclusive.
CCOc1ccc(Cl)cc1S(=O)(=O)n1cnc2ccccc21 was read as Prx2 Sm inh >57.
For CN(C)c1ccc(-c2nn3c(-c4ccccc4Cl)nnc3s2)cc1 the results were Prx2 Sm inh >57.
For O=C(O)C1CCCN1C(=O)Nc1ccc(F)cc1 (stereo not given) the results were Prx2 Sm inh >57 and LT uptake inh -10%.
For CN(CC(O)COCc1cccs1)C1CCCCC1 (stereo not given) the results were Prx2 Sm inh >57 and LT uptake inh -11%.
`CCC/C=C(\CCC)C(NS(=O)(=O)c1ccc(Cl)cc1)c1ccc(C(=O)OC)cc1` (stereo not given) gave Prx2 Sm inh >57 and LT uptake inh -18%.
Screening Cc1nnc(SCC2CCCO2)n1-c1ccccc1 (stereo not given) returned Prx2 Sm inh >57 and LT uptake inh -21%.
For CCN(CC)C(=O)c1cccc(C)c1 the results were LT uptake inh -7%.
For Brc1cnc(N2CCCC2)nc1N1CCCCC1 the results were Prx2 Sm inh >57 and LT uptake inh inconclusive.
For Cn1c(CCN2CCOCC2)nc2cc(NC(=O)COc3ccccc3)ccc21 the results were Prx2 Sm inh >57 and LT uptake inh 11%.
`CCOC(=O)Cn1c(CN(C)Cc2ccccc2)nc2c1c(=O)n(C)c(=O)n2C` gave Prx2 Sm inh >57 and LT uptake inh inconclusive.
Screening COc1cccc(-c2ccc3ncnc(NCc4ccc(OC)cc4OC)c3c2)c1 returned Prx2 Sm inh >57 and LT uptake inh inconclusive.
CCOC(=O)c1c(Nc2nc(C)c(C(=O)NC)s2)sc(C)c1C was read as Prx2 Sm inh >57 and LT uptake inh -9%.
Screening COC(=O)[C@H](CC(C)C)NC(=O)NC1CCCc2ccccc21 (stereo not given in full) returned Prx2 Sm inh >57 and LT uptake inh 0%.
Screening NC(N)=NCCC[C@H](NC(=O)CC1(CC(=O)N2CCN(C3c4ccccc4NC(=O)c4ccccc43)CC2)CCCC1)C(=O)NCCn1c(=O)n(-c2ccccc2)n(-c2ccccc2)c1=O (stereo not given in full) returned LT uptake inh 1%.

This is a subset, so the mix of outcomes need not match the whole.
